Screening data deposited in PubChem BioAssay by National Center for Advancing Translational Sciences (NCATS).
VDR inhibitor: blocks the human vitamin D receptor. Potency, µM, inactives show max response, negative = inhibition, usual class: inhibitors. actives 0.93% (n = 400,000). AID 504847. P11473. VDR-SRC2-3 peptide fluorescence polarization, 2 h; active means well fitted inhibition curve with a large enough effect; inconclusive means small, poorly fitted or top-dose-only effect, or another doubt; inactive means no such curve, though single readings can be large or run the other way; further: series mostly up to about 120 µM
Target sequence (P11473 whole entry, looked up): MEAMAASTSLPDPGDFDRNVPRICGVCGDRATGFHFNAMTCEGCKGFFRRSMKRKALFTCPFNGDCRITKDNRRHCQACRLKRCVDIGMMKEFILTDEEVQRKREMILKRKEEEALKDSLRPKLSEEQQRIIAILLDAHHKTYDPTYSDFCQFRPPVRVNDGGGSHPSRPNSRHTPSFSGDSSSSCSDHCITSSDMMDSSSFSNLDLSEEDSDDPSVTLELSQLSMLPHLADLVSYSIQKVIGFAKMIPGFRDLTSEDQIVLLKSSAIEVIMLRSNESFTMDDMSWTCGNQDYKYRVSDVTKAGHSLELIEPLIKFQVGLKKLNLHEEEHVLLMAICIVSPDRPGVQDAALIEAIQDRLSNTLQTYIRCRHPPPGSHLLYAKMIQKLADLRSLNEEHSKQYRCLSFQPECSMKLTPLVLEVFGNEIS
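Measured by FP: displacement of SRC2-3 coactivator peptide from VDR by library compounds, following a two-hour ambient incubation.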
* marks the source's active call; other numbers are inactive results; ? = inconclusive; & = joins results of further samples. On the % scale 0 is the no-effect control and ±100 the full control effect; potency means the concentration at half of the fitted maximal effect.

SMILES	VDR inhibitor
CCOC(=O)CC1=C(C(=O)OCC)C(c2ccc(OC)cc2OC)C(C#N)=C(N)O1 (centres undefined)	-4%
CC1(C)CC(=O)C2=C(C1)OC(N)=C(C#N)C21CCN(Cc2ccccc2)CC1	16%
CCOc1ccc(/C=N/O)cc1	-12%
Fc1ccccc1CSc1nnc(Cn2cnc3ccccc32)n1-c1ccccc1	6%
CCOc1ccc(OC(=O)c2cccc(S(=O)(=O)N3CCN(C)CC3)c2)cc1	-19%
CC(=O)OCC(=O)C1CCC2C3CC=C4CC(O)CCC4(C)C3CCC12C (centres undefined)	-7%
CCOCCCN(C(=O)c1snc(C(N)=O)c1N)C(C(=O)NC(C)(C)C)c1ccc(Cl)cc1 (centres undefined)	?
CCCCCCCCCCCCC/C=C/[C@@H](O)[C@@H](N)CO	-9%&1%&78%&17%
Cc1noc(C)c1-c1cc(NCc2cccs2)ncn1	?
CCN(CC)S(=O)(=O)c1ccc2oc(Nc3ccc4c(c3)OCCO4)nc2c1	-3%
CCN(C(=O)c1ccc(NC(C)=O)cc1)c1ccccc1C	9%
CN(CC(=O)Nc1cccc(Cl)c1)S(=O)(=O)c1ccc2c(c1)n(C)c(=O)c(=O)n2C	79µM*
CCOc1ccc(N(CC(=O)NCc2ccc(OC)cc2)S(=O)(=O)c2c(C)noc2C)cc1	1%
Cc1ccc(OCCNC(=O)CNC(=O)c2ccc(C)cc2)cc1	-1%
CN(C)S(=O)(=O)c1cccc(NC(=O)c2ccccc2OCc2ccc(F)cc2)c1	11%
C=CCN(C(=O)COC(=O)c1cc[n+]([O-])cc1)c1nc(-c2ccccc2)cs1	2%
Cc1cc2ncn(CCCCOc3ccccc3)c2cc1C	8%&-13%
Cc1nnc(SCc2ccc(Cl)cc2)c2cc3occc3n12	-8%
CCOc1ccccc1C1N=C(N)Nc2nc3ccccc3n21 (centres undefined)	1%
COc1ccc(OCCOc2ccc(S(=O)(=O)N3CCCC3)cc2[N+](=O)[O-])cc1	-11%

Shown with the structure last: part of the list above
VDR inhibitor	molecule
-8%	Cc1nnc(SCc2ccc(Cl)cc2)c2cc3occc3n12
1%	CCOc1ccccc1C1N=C(N)Nc2nc3ccccc3n21 (centres undefined)

Returning to the listing, starting 2 compounds before the break.
SMILES	VDR inhibitor
CCOc1ccccc1C1N=C(N)Nc2nc3ccccc3n21 (centres undefined)	1%
COc1ccc(OCCOc2ccc(S(=O)(=O)N3CCCC3)cc2[N+](=O)[O-])cc1	-11%
COc1cccc(C(=O)Nc2c3c(nn2-c2cccc(C)c2C)CS(=O)C3)c1OC (centres undefined)	9%
Nc1nn(-c2ccccc2)c2ccc([N+](=O)[O-])cc12	-12%
CCn1c(C)nc2cc(C(=O)NNC(=S)NC(=O)c3ccccc3)ccc21	-6%
COc1ccc(-c2nnc3n2-c2ccccc2SC3)cc1OC	17%
CCS(=O)(=O)C1=NSC2=NC(=O)/C(=C\c3ccc(OS(=O)(=O)c4ccccc4)c(OC)c3)C(=N)N21	50µM*
COc1ccc(/C=C2\SC(=S)N(CCC(=O)NCCCN3CCOCC3)C2=O)cc1	?
O=C(CCC(=O)c1cccs1)NNC(=O)c1ccccc1Cl	-6%
CC1=C(C(=O)Nc2ccccc2C(=O)NCCCN2CCN(C)CC2)SCCO1	-14%
O=C(CCc1n[nH]c(=O)[nH]c1=O)N1CCOCC1	-2%
CCOc1ccc2c(c1)C(=NNC(=O)c1ccncc1)c1cc(OCC)ccc1-2	-4%

Laid out differently: 6 of the compounds above
mol | VDR inhibitor
CCn1c(C)nc2cc(C(=O)NNC(=S)NC(=O)c3ccccc3)ccc21 | -6%
O=C(CCc1n[nH]c(=O)[nH]c1=O)N1CCOCC1 | -2%
COc1cccc(C(=O)Nc2c3c(nn2-c2cccc(C)c2C)CS(=O)C3)c1OC (centres undefined) | 9%
CCOc1ccc2c(c1)C(=NNC(=O)c1ccncc1)c1cc(OCC)ccc1-2 | -4%
Nc1nn(-c2ccccc2)c2ccc([N+](=O)[O-])cc12 | -12%
O=C(CCC(=O)c1cccs1)NNC(=O)c1ccccc1Cl | -6%

(further entries)
SMILES	VDR inhibitor
CC1CCN(c2oc(-c3ccc(COc4ccccc4)o3)nc2C#N)CC1	13%
COc1ccc(C(=O)N2CC3(CC(c4ccc(Cl)cc4)=NO3)C[C@H]2C(=O)NCC(N)=O)cc1 (some centres undefined)	-15%
COc1cc(Nc2ncc3c(n2)CCN(Cc2cccc(C)c2)C3)cc(OC)c1	18%
Cn1c(CCn2ccccc2=O)nc2cc(NC(=O)COc3ccccc3)ccc21	-12%
CC1CCC(NC(=O)CSc2ccc(S(=O)(=O)N(C)C)cn2)CC1 (centres undefined)	4%
COc1ccc(C(=O)CC(=O)Nc2ccc([N+](=O)[O-])cc2)cc1	-8%
CC(Oc1ccc(F)cc1)C(=O)Nc1cc(C(F)(F)F)ccc1-n1cncn1 (centres undefined)	-11%
CCc1ccc(CNC(=O)CCCN2C(=O)c3cccnc3Oc3ccc(Cl)cc32)cc1	12%
O=c1c2ccccc2nc(COc2ccccc2)n1/N=C/c1cn[nH]c1-c1ccccc1	-23%
COc1cccc(C2(C)NC(=O)N(CC(=O)Nc3ccc(N4CCOCC4)cc3)C2=O)c1 (centres undefined)	9%
CC(C)c1ccc(NC(=S)N2CCCC(c3ccc(F)cc3)=N2)cc1	-7%
COc1ccc(S(=O)(=O)N(C)C)cc1NC(=O)COC(=O)Cn1cnc2ccccc2c1=O	-9%
COc1ccc(Cl)cc1N(CC(=O)Nc1ccccc1SC)S(C)(=O)=O	9%
CC(C)c1ccc(-c2nc(N3CCCC3)nc3n[nH]c(N)c23)cc1	-8%
Cc1cccc(NC(=O)c2ccc(C(=O)c3ccccc3)cc2)n1	-25%
CC(C)N1C(=O)C(=O)N(CC(=O)N(C)c2ccccc2)C1=O	13%
Cc1cc(Cl)ccc1OCC(=O)OCC(=O)c1c(N)n(C)c(=O)n(C)c1=O	-7%
CCN(c1ccccc1)S(=O)(=O)c1ccc(C(=O)NCCc2ccc(S(N)(=O)=O)cc2)cc1	28%
CN=C(Nc1cccnc1)c1ccccc1	-4%
Cc1noc(C)c1S(=O)(=O)N(CC(=O)Nc1ccc(C(F)(F)F)cc1)c1ccc(C(C)C)cc1	-16%
COc1ccc(C)cc1NC(=O)Nc1ccccc1OCc1cc(=O)n2ccccc2n1	6%
CCCC(=O)Nc1nnc(SCC(=O)NC2CC2)s1	-12%
CC(=O)Nc1ccc(CN2CCCN(C)CC2)cc1	-7%
CSc1nc(C)cc(OCC(=O)N/N=C/c2ccccc2O)n1	-25%
CCC(C)c1ccc(NC(=S)NN2CCOCC2)cc1 (centres undefined)	-29%
Cc1oc(-c2ccc(Cl)cc2)nc1CN1CCC(C(=O)NCCCN2CCN(c3cccc(Cl)c3)CC2)CC1	3%
CCCN(CCC)c1nc(C#N)nc(N(CCC)CCC)n1	5%&-7%
CCC(=O)c1ccc(OCC(=O)OCC(=O)Nc2cccc(S(=O)(=O)N3CCCC3)c2)cc1	9%
Cc1cccc(Nc2ccncc2S(=O)(=O)NC(=O)NC(C)C)c1	5%&1%
COc1cc([N+](=O)[O-])ccc1NC(=O)COC(=O)CCS(=O)(=O)c1ccc(C)cc1	-3%

Compounds from the list above that have a CF3 group:
SMILES	VDR inhibitor
CC(Oc1ccc(F)cc1)C(=O)Nc1cc(C(F)(F)F)ccc1-n1cncn1 (centres undefined)	-11%
Cc1noc(C)c1S(=O)(=O)N(CC(=O)Nc1ccc(C(F)(F)F)cc1)c1ccc(C(C)C)cc1	-16%

Next compounds follow:
SMILES	VDR inhibitor
Cc1ccccc1NC(=O)Cn1cc(S(=O)(=O)c2ccccc2)c(=O)c2ccccc21	-13%
CN(CC(=O)Nc1cccc(F)c1)CC(=O)N1CCCCC1	4%
COc1ccccc1NC(=O)c1cc([N+](=O)[O-])ccc1NCCN1C(=O)CCC1=O	2%
COc1ccc(Nc2nccc(NCCO)n2)cc1	-12%
Nc1nonc1N/N=C/c1c(O)ccc2ccccc12	-9%
Cc1ccn2cc(C(=O)Nc3ccccc3N3CCOCC3)nc2c1	-8%
CCN(CC)c1nc(SCCOC(=O)Nc2ccccc2)nc(N(CC)CC)n1	24%
COC(=O)c1ccc(C2Nc3c(C)cccc3-c3cc(C)nn32)cc1 (centres undefined)	-9%
COCCn1c(SCC(=O)NC(=O)NCc2ccccc2)nc2ccccc21	-10%
COc1ccc([N+](=O)[O-])cc1N(CC(=O)N(C)C)S(C)(=O)=O	19%
COc1cccc(-c2nn3c(-c4ccccn4)nnc3s2)c1	4%
CCN1C(=O)S/C(=C/c2c(OCc3ccc(C(=O)O)cc3)ccc3ccccc23)C1=O	?
CCc1ccccc1NC(=O)COC(=O)c1cn(CC)c2nc(C)ccc2c1=O	-18%
CCSCCC(NC1=CC(=O)CC(C)(C)C1)C(=O)O (centres undefined)	-8%
COc1ccc(C2c3ccc4ccccc4c3Oc3ncn(CCN4CCOCC4)c(=N)c32)cc1 (centres undefined)	-13%
CCc1ccc(/C=N/NC(=O)Cc2ccc(OC)c(OC)c2)s1	6%
COc1ccc(Oc2ncc3nc(-c4cccs4)c(=O)n(Cc4cccs4)c3n2)cc1	-4%
Cn1cc(/C=C(\NC(=O)c2ccccc2Cl)C(=O)NCCCn2ccnc2)c2ccccc21	-3%
CCCOC(=O)C1[C@H]2C(=O)N(C(C)c3ccc(OC)cc3)C[C@]23C=C[C@H]1O3 (some centres undefined)	-12%
C=C(C)C(=O)/C=C/c1ccc(C(F)(F)F)cc1	3%
COc1ccc(C(C)=O)cc1CSc1nc2ccccc2c(=O)n1-c1ccccc1	-6%
COc1ccc(CNC(=O)COC(=O)CCn2c(C)csc2=O)cc1OC	-8%
C/C(CC(=O)Nc1ccccc1C(F)(F)F)=N\NC(=O)c1cnccn1	-14%
NS(=O)(=O)c1ccc(Nc2nc(-c3ccc(F)cc3)cs2)cc1	6%
COCCN(C(=S)Nc1ccc(Cl)cc1OC)C1CCN(C(C)=O)CC1	12%
C=CCN1C(=O)c2ccc(C(=O)OCC(=O)N(C)C3CCCCC3)cc2C1=O	-14%
O=C(CN1CCCC1=O)NC1C2CC3CC(C2)CC1C3 (centres undefined)	-24%
CCOC(=O)c1cnc(N2CCN(c3ccc(C)cc3C)CC2)c2ccccc12	6%
O=C(COC(=O)c1cnc(Cl)c(Cl)c1)NCCC1=CCCCC1	-13%
COc1ccc(NC(=O)Cn2cccc2)c(OC)c1	-3%
Cc1cc2nc(SCC(=O)O)nc(C)c2cc1C	-11%
NC(=O)CC(NC(=O)Cc1ccc(Br)cc1)c1ccc(N2CCc3ccccc3C2)c([N+](=O)[O-])c1 (centres undefined)	-7%
C=C1CCC2C(C)(C)[C@@H](O)CC[C@@]2(C)[C@@H]1COc1ccc2ccc(=O)oc2c1 (some centres undefined)	1%
COC(C[C@H]1O[C@H]1[C@@H](O)COCc1ccccc1)OC	1%
CCOc1ccc(-c2cn3c(n2)sc2cc(C(=O)NCCCc4ccccc4)ccc23)cc1	7%
Cc1cc(Cl)ccc1OCC(=O)NNC(=O)c1cnccn1	1%
Cc1ccc(CN2CCNC(=O)C2CC(=O)NCc2csc(C(C)C)n2)cc1 (centres undefined)	-28%
CS(=O)(=O)N(Cc1ccccc1)c1ccc(C(=O)Nc2cccnc2)cc1	-12%
Oc1c(N=NC(=S)Nc2ccccc2F)c2ccccc2n1Cc1ccc(Cl)cc1	-15%
CC(=O)Nc1cccc(NC(=O)c2ccc(Br)cc2)c1	5%
C[n+]1ccccc1C1CCCC/C1=N\NC(N)=S (centres undefined)	-20%
c1cnc2nc3c4ccccc4c4ccccc4c3nc2c1	14%
CCOC(=O)Cn1nnc(-c2ccc(SC)cc2)n1	13%
O=S(=O)(Nc1ccccc1F)c1cccc(NC(=S)NCCN2CCOCC2)c1	35µM*
COc1ccc(Cl)c2sc(NC(=O)C3=COCCO3)nc12	24%
CCCCNC(=S)N(Cc1ccco1)Cc1cc2cc3c(cc2[nH]c1=O)OCCO3	-7%
Cc1nn(C)cc1[C@@H]1C[C@H]2CN(Cc3cccc(Cl)c3)C(=O)[C@]23CCCN13	15%
COc1ccc(CNC(=O)c2cc(-c3ccc(OC)cc3)on2)cc1	-13%
COC(=O)c1cc2occc2n1Cc1nc(-c2ccc(C)cc2)oc1C	-24%
CCCCCCOC1(c2ccccc2)OC(=O)c2ccccc21 (centres undefined)	5%
(list continues)
SMILES	VDR inhibitor
O=C(CSC1=Nc2ccccc2N=C(c2ccc(F)cc2)C1)NCc1ccc(F)cc1	1%
Cc1cccc(Cn2c(NCCO)nc3c2c(=O)n(C)c(=O)n3C)c1	-1%
Cc1ccc(N2C(=O)N3[C@H](c4ccc(F)cc4)[C@@H]4C(=O)N(C5CCCCC5)C(=O)[C@@H]4[C@]3(C)C2=O)cc1	-17%
CCOc1ccc(CCNC(=O)c2nnn(CC(=O)Nc3ccc(C)cc3)c2N)cc1OCC	-7%
O=C(NCCNc1ccc([N+](=O)[O-])cc1C(F)(F)F)c1ccccc1	4%
O=C(NCc1cccs1)C1CC(=O)N(Cc2ccccc2)C1 (centres undefined)	18%
COc1ccc(C2=NN(C(=O)COC(=O)c3ccc(S(C)(=O)=O)c([N+](=O)[O-])c3)C(c3ccco3)C2)cc1 (centres undefined)	-19%
Cc1ccc(OCc2nnc(SCC(=O)Nc3sc(C)c(C)c3C#N)n2C)cc1	6%
CNS(=O)(=O)c1cccc(C(=O)OC2CCOC2=O)c1 (centres undefined)	-15%
CN(C)CCC(O)c1ccccc1 (centres undefined)	-9%
O=C(COc1ccc2c(-c3ccccc3)cc(=O)oc2c1)NCC(O)c1ccccc1 (centres undefined)	-2%
Cc1nc2ccccc2c(-c2ccccc2)c1C(=O)c1ccccc1	3%
COc1cc(Nc2nc(-c3ccc(OC)c(OC)c3)nc3ccccc23)cc(OC)c1	19%
CN1/C(=C\C(=O)c2cccc(S(=O)(=O)N3CCCCC3)c2)C(C)(C)c2ccccc21	-7%

These rows are one share of the data; count on the stated rates, not on these rows.
